Rango dissoc inh – prevents RanGTP from dissociating the Rango-importin beta complex | O95149+P62826 | Biochemical FRET Rango-importin beta, RanGTP-induced dissociation | Potency, µM (series often up to 46.1 µM), for inactives: at the highest dose activity change, negative = inhibition | 0.071% of 340,000 active | AID 540253; active means falling FRET ratio curve, often poorly fitted, with flat reads before Ran was added; inconclusive means other falling curves, or compound fluorescence or quenching; inactive means flat or rising ratio curve;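 also: potency is read from the fitted curve at half-maximal effect; % of control where 0% means no effect; nearly all actives have a fitted effect of over 45% in size; -100% = wells without RanGTP and RCC1; the record marks most hits as doubtful in a second field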
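Two FRET readings bracket the reaction: one 5 min after compound meets Rango–importin beta, another 45 min after RanGTP-RCC1 (0.6 uM Ran, 0.2 uM RCC1, 2 mM GTP) is added. Only the second defines inhibition.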
GLA inh pH 4.5 – alpha-galactosidase A (human) inhibition, pH 4.5 | 230,000 tested, under 10 active | AID 1467 | P06280 | activity change, negative = inhibition, % at 105 µM | purified enzyme, 4-MU-alpha-Gal fluorescence, pH 4.5; inconclusive = small, poorly fitted or top-dose-only inhibition, or a rising curve; inactive = flat fitted curve, though single readings scatter; no compound was filed as active;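 also: 0% = full activity with enzyme and -100% = basal without enzyme; dose as in the result columns while the protocol names 77 µM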
miR-21 reporter – raises the signal of a miR-21 reporter; Potency, µM (series often up to 38.3 µM), inactives show top-dose reporter change, positive = more light; HeLa miR-21 FLuc reporter, luciferase, 48 h; 340,000 tested, under 10 active; active = well fitted rising curve with a large enough effect; inconclusive = small, poorly fitted or top-dose-only effect; inactive = no such curve, though single readings can be large or run the other way;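 also: % of control where 0% means no effect; miR-21 action dims this reporter so a rising signal means less miR-21 action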
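HeLa cells endogenously expressing miR-21, stably carrying CMV-driven firefly luciferase with a downstream miR-21 binding site, 2000 cells/well. Titrations up to approximately 40 uM, 48 hours; luciferase luminescence read.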
Rango-impB inh – inhibitors of Rango-importin beta complex formation; Q14974; Rango CFP/YFP FRET sensor + importin beta, 45 min; Potency, µM (series often up to 92.2 µM), for inactives: at the top dose inhibition of complex formation; 0.031% of 340,000 active; AID 540263; active = rising FRET ratio curve, often small or poorly fitted; inconclusive = mostly compound fluorescence or quenching in the first reads; inactive = flat curves in all reads;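 also: potency is read from the fitted curve at half-maximal effect; 0% = DMSO wells and 100% = buffer wells lacking importin beta; nearly all actives have a fitted effect of over 15% in size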
Target sequence (Q14974 whole entry, looked up): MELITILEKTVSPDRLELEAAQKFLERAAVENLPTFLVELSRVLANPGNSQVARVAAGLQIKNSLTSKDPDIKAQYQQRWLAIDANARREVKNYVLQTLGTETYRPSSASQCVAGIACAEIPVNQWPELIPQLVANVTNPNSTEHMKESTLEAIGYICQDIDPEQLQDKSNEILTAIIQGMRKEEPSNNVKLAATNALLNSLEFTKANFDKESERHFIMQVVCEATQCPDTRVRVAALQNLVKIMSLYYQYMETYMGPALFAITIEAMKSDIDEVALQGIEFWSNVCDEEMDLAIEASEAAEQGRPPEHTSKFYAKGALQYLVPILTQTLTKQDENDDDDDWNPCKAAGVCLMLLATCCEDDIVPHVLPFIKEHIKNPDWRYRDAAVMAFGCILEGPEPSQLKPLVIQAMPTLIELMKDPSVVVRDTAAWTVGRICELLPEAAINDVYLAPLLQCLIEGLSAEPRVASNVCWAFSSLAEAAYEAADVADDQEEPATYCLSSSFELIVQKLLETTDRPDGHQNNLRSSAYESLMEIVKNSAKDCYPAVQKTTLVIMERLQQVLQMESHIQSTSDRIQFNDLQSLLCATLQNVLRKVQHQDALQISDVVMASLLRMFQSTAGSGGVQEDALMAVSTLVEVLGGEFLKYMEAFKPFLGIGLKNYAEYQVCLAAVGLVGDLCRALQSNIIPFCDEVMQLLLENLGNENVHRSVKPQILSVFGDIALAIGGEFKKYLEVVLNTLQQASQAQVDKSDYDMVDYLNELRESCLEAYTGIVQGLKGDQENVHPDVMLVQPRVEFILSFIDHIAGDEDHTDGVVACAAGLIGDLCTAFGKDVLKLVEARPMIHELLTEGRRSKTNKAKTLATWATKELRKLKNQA
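FRET biosensor Rango (snurportin 1 IBB between N-terminal EYFP and C-terminal Cerulean), 50 nM in PBS/1 mM DTT/0.02% Tween-20/0.1% BSA, preincubated 5 min RT with compound; 0.125 microM importin beta added, 45 min RT, CFP/YFP FRET ratio read.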
Active calls of the source: *; ? = inconclusive; . = no result given; [ ] = another dose, or the depositor's remark.

Rango dissoc inh	GLA inh pH 4.5	miR-21 reporter	Rango-impB inh	SMILES
2%	-3	-2%	7.3%	COC(=O)c1ccc(CNC(=O)CSc2nc3sc(C)c(C)c3c(=O)n2C)o1
1%	.	.	-0.5%	CCOc1ccc(N2CC(C(=O)Nc3cc(S(=O)(=O)N4CCCCC4)ccc3C)CC2=O)cc1 (stereo not given)
-2%	.	.	0.9%	Cc1ccccc1/C=C/C(=O)c1ccc([N+](=O)[O-])o1
5%	.	.	-2.0%	CNS(=O)(=O)c1ccc(C(=O)NCC(=O)NCCC(c2ccccc2)c2ccccc2)cc1
-21%	.	-2%	-2.9%	Cc1[nH][nH]c(=O)c1C(c1ccc(F)cc1)c1c(C)[nH][nH]c1=O
-2%	1	-1%	-0.5%	COc1ccc(N(Cc2cc3cccc(C)c3[nH]c2=O)S(C)(=O)=O)cc1
-2%	-5	1%	7.2%	Cc1cc(NC(=O)CSc2nnc(-c3c[nH]c4ccccc34)n2-c2ccc(F)cc2)no1
-7%	.	0%	2.8%	COC(=O)CCC(=O)Nc1ccc(S(=O)(=O)Nc2cc(OC)nc(OC)n2)cc1
0%	7	-2%	2.7%	Cc1noc(C)c1C(=O)N1CCCC(C(=O)c2ccc(Cl)cc2)C1 (stereo not given)
-2%	2	0%	-2.4%	Cc1cc(-c2nc(C)c(C(=O)NNS(=O)(=O)c3ccccc3)s2)no1
64%	-3[21.1 µM]	-45%	2.2%	CCc1cccc(NC(=S)N2CCC(c3ccccc3)C2)c1 (stereo not given)
0%	.	.	-0.2%	COC(=O)c1ccc(CN(c2ccc(OC)cc2)S(=O)(=O)c2ccccc2)cc1
12%	-2	-7%	?	O=C(Nc1nc(-c2ccco2)c(-c2ccco2)s1)C1CCC1
-12%	5	-8%	-1.0%	CN(C)c1cccc(C(=O)OCC(=O)NCc2ccco2)c1
17%	0	?	-1.7%	OC(CNCCC(c1ccccc1)c1ccccc1)COc1ccccc1 (stereo not given)

Next part.
Rango dissoc inh	GLA inh pH 4.5	miR-21 reporter	Rango-impB inh	SMILES
-6%	.	-6%	4.7%	CCn1ccnc1CN(C)C(=O)c1ccc(OC2CCN(CCc3ccccc3)CC2)cc1
0%	.	4%	-5.2%	CCOC(=O)C1CCN(Cc2ccc(OC)c(OCc3ccccc3)c2)CC1
-2%	.	20%	0.3%	CC(Nc1nc(-c2cccc(Br)c2)cs1)c1nc2cc(Cl)c(N3CCCCC3)cc2n1CCOCCO (stereo not given)
-10%	.	6%	0.0%	O=C(COc1ccc(S(=O)(=O)N2CCOCC2)cc1Cl)NCCN1CCOCC1
-14%	.	.	1.7%	O=C(Nc1cc(Cl)ccc1-n1cncn1)c1cccs1
1%	9	-59%	3.3%	CC(C)c1ccc(/C=N/NC(=O)c2c(Cl)cnn2C)cc1
12%	.	.	0.3%	Cc1cc(C(=O)Nc2ccncc2)c(C)o1
7%	.	1%	4.4%	CC(C(=O)OCC(=O)c1ccc([N+](=O)[O-])cc1)N1C(=O)C2C3C=CC(C3)C2C1=O (stereo not given)
-9%	.	.	?	NCC(=O)NCC(=O)NC1(C(=O)O)CCCC1
-9%	5	-3%	-3.3%	CCCC(=O)Nc1nc2nc(C)cc(=O)n2[nH]1
-4%	4	-20%	-2.4%	Cc1ccc(NC(=S)NNC(C)(C)C)cc1
-6%	7	-13%	?	Cc1ccc(OCC(=O)Nc2cccc3nsnc23)c(C)c1
-7%	4	-3%	-2.4%	CC1CN(Cc2ccccc2)c2nc3c(c(=O)n(C)c(=O)n3C)n2C1 (stereo not given)
15%	5	-11%	-1.9%	Cc1cccc(C(=O)O)c1NC(=O)c1ccc(F)cc1
12%	.	11%	-0.5%	CCOc1ccccc1N(C(=O)c1snc(C(N)=O)c1N)C(C(=O)NCc1ccccc1)c1ccc(O)cc1 (stereo not given)

Other results follow:
Rango dissoc inh	GLA inh pH 4.5	miR-21 reporter	Rango-impB inh	SMILES
-13%	-1	-8%	-4.7%	Cc1cnc(NC(=O)C2CCCO2)s1 (stereo not given)
-8%	.	-49%	-4.0%	Cc1cccc(NC(=O)c2cc(-c3ccc(C)c(C)c3O)n[nH]2)c1
0%	.	2%	-1.0%	CCOC(=O)C1CCN(C(=O)CCNC(=O)Cn2cnc3ccccc3c2=O)CC1
19%	-8	-8%	-1.1%	Cc1cc2c(ncn2Cc2ccccc2)c([N+](=O)[O-])c1C
-2%	0	4%	-1.2%	CC(C)COP(=O)(OCC(C)C)C(O)c1ccc(N(C)C)cc1 (stereo not given)
?	.	.	?	Nc1ccc2c(c1)CCC2=O
17%	.	-12%	2.8%	Cc1cc(C)n(Cc2cccc(C(=O)N/N=C/c3ccncc3)c2)n1
1%	4	-64%	-3.8%	COc1cc(OC)cc(-c2nc3cc(C)ccc3o2)c1
-9%	-21	-6%	3.0%	O=C(Cc1csc(N2CCOCC2)n1)N/N=C/c1ccccc1C(=O)O
0%	.	1%	-1.3%	Cc1cc(C)c(S(=O)(=O)N2CCN(S(=O)(=O)N3CCOCC3)CC2)c(C)c1
-2%	.	14%	-3.6%	CC(C)(C)OC(=O)CNC(=O)c1[nH]cnc1C(=O)NCC(=O)OCc1ccccc1
-19%	.	.	0.1%	COc1ccccc1NS(=O)(=O)c1ccc(C)c(NC(=O)c2c(C)noc2C)c1
-9%	.	-1%	-2.1%	Cc1cccc(OCC(O)CN2CCN(c3ccccn3)CC2)c1C (stereo not given)
37%	-14	1%	1.1%	Cc1cc(C(=O)OCC(=O)N2CCCC2)c2ccccc2n1
18%	17	-1%	-0.6%	CCc1ccccc1NC1=NCC(=O)N1C1CCCC1

Going on with the list.
Rango dissoc inh	GLA inh pH 4.5	miR-21 reporter	Rango-impB inh	SMILES
.	-6	1%	.	Cc1cc(Cl)c(OCCCCNC(C)(C)C)c(Br)c1
0%	6	-10%	-0.3%	O=C(Nc1ccc(F)cc1)N1CCN(C/C=C/c2ccccc2)CC1
6%	-2	-22%	-0.9%	CCSc1nnc2ccc(-c3cccs3)nn12
-15%	-5	-13%	0.0%	COC(=O)C1CCN(C(=O)c2sc3nc(-c4ccccc4)cn3c2C)CC1
-6%	-16	-19%	3.3%	Cc1ccc(OCCCCN2CCCCC2)c(Br)c1
-4%	4	-17%	-1.2%	Cc1nc2ccccc2c2nc3ccccc3n12
-16%	2	-6%	-1.0%	Cc1ccc(N2C(=O)CC(N3CCc4ccccc43)C2=O)cc1Cl (stereo not given)
-8%	.	.	-2.7%	O=C1c2ccccc2C(=O)c2c(/C=C/N3CCCCC3)ccnc21
0%	.	-69%	-5.2%	Cc1ccc(NC(=O)C2CCCN(c3ncccn3)C2)cc1C (stereo not given)
-4%	.	.	-3.4%	CC(=O)c1ccc(S(=O)(=O)N(C)CCCC(=O)N2CCN(c3ncccn3)CC2)cc1
13%	.	.	8.0%	O=C(COC(=O)COc1cccc(F)c1)Nc1nc2ccccc2s1
-11%	.	.	0.6%	O=C(CSc1nnnn1C1CC1)N1CCN(Cc2ccccc2F)CC1
12%	-22	?	0.8%	CCCCN(C(=O)c1cccc2c(=O)c(C)c(-c3ccccc3)oc12)c1ccccc1
7%	5	-3%	-0.7%	Cc1cccc(C(=O)Nc2nnc(COc3ccccc3)s2)c1
0%	.	.	-3.0%	C[C@H](NC(=O)c1ccccc1Cl)C(=O)OCC(=O)NNC(=O)c1cccs1

New compounds follow.
Rango dissoc inh	GLA inh pH 4.5	miR-21 reporter	Rango-impB inh	SMILES
16%	-15	1%	-1.9%	CCOC(=O)C1=C(N)N2C(=O)C(C)SC2=C(C(=O)OCC)C1c1ccccc1 (stereo not given)
28%	5	-5%	-0.2%	O=C(NC(C(=O)N1CCCC1C(=O)O)=C1CCCCC1)c1ccccc1 (stereo not given)
-10%	3	-3%	0.5%	Cc1ccc2[nH]c(=O)c(CNC(C)(C)C)cc2c1
2%	0	-21%	0.1%	Cc1nn2c(NCCCN(C)C)c3c(nc2c1-c1ccccc1)CCC3
6%	9	-13%	-2.3%	Nc1nnc(CSCc2ccc(F)cc2)s1
?	-9	18%	-4.5%	Cc1ccc(S(=O)(=O)N(C)CCCC(=O)Nc2ccc(F)cc2)cc1
-1%	-2	-3%	0.7%	Cc1ccc(NC(=O)C2CCCCC2C(=O)O)cc1C (stereo not given)
?	.	-1%	?	Cc1ccc(S(=O)(=O)NCCc2cn3nc(C)c(C)nc3n2)cc1C
6%	-16	-2%	3.8%	CC(=O)Nc1ccc(S(=O)(=O)N2CCN(Cc3nc4sc(C)c(C)c4c(=O)[nH]3)CC2)cc1
4%	.	.	2.9%	CC1(NC(=O)CSc2nnc(-c3c[nH]c4ccccc34)n2C2CC2)CCS(=O)(=O)C1 (stereo not given)
1%	.	-40%	-0.8%	Cc1ccc(NC(=O)NCc2cccnc2)cc1Cl
-16%	-7	-4%	-2.5%	O=C(O)c1ccc2c(c1)C(=O)N(c1cccc(S(=O)(=O)Nc3cccc(C(F)(F)F)c3)c1)C2=O
-6%	.	1%	-0.9%	COc1ccc(Cn2c(=O)[nH]c3cc(C(=O)Nc4ccccc4C)ccc32)cc1
-19%	.	-48%	?	COC(=O)c1ccc(Nc2ncnc3sccc23)cc1
10%	1	-41%	-1.2%	COc1ccccc1OCCn1c(=O)n(C)c2ccccc21

An excerpt from above in order of the Rango-impB inh value, lowest first:
Rango dissoc inh	GLA inh pH 4.5	miR-21 reporter	Rango-impB inh	SMILES
-6%	.	1%	-0.9%	COc1ccc(Cn2c(=O)[nH]c3cc(C(=O)Nc4ccccc4C)ccc32)cc1
28%	5	-5%	-0.2%	O=C(NC(C(=O)N1CCCC1C(=O)O)=C1CCCCC1)c1ccccc1 (stereo not given)
-10%	3	-3%	0.5%	Cc1ccc2[nH]c(=O)c(CNC(C)(C)C)cc2c1

Gathered by group, the entries above containing an NH in an aromatic ring (10)
Rango dissoc inh	GLA inh pH 4.5	miR-21 reporter	Rango-impB inh	SMILES
-21%	.	-2%	-2.9%	Cc1[nH][nH]c(=O)c1C(c1ccc(F)cc1)c1c(C)[nH][nH]c1=O
-2%	1	-1%	-0.5%	COc1ccc(N(Cc2cc3cccc(C)c3[nH]c2=O)S(C)(=O)=O)cc1
-2%	-5	1%	7.2%	Cc1cc(NC(=O)CSc2nnc(-c3c[nH]c4ccccc34)n2-c2ccc(F)cc2)no1
-9%	5	-3%	-3.3%	CCCC(=O)Nc1nc2nc(C)cc(=O)n2[nH]1
-8%	.	-49%	-4.0%	Cc1cccc(NC(=O)c2cc(-c3ccc(C)c(C)c3O)n[nH]2)c1
-2%	.	14%	-3.6%	CC(C)(C)OC(=O)CNC(=O)c1[nH]cnc1C(=O)NCC(=O)OCc1ccccc1
-10%	3	-3%	0.5%	Cc1ccc2[nH]c(=O)c(CNC(C)(C)C)cc2c1
6%	-16	-2%	3.8%	CC(=O)Nc1ccc(S(=O)(=O)N2CCN(Cc3nc4sc(C)c(C)c4c(=O)[nH]3)CC2)cc1
4%	.	.	2.9%	CC1(NC(=O)CSc2nnc(-c3c[nH]c4ccccc34)n2C2CC2)CCS(=O)(=O)C1 (stereo not given)
-6%	.	1%	-0.9%	COc1ccc(Cn2c(=O)[nH]c3cc(C(=O)Nc4ccccc4C)ccc32)cc1

Looked up above.
miR-21 reporter, Cc1cc(C(=O)OCC(=O)N2CCCC2)c2ccccc2n1 is entered as 1%
miR-21 reporter, O=C(O)c1ccc2c(c1)C(=O)N(c1cccc(S(=O)(=O)Nc3cccc(C(F)(F)F)c3)c1)C2=O is entered as -4%

Source: PubChem BioAssay

An excerpt; the hit share may differ from the screen's.
